# Sa helicase inh: inhibitors of S. aureus replicative helicase, primary screen, biochemical, fluorescence unwinding readout; purified S. aureus helicase, fluorescence unwinding assay; about half of the hits fall short of the stated cut; inhibition, %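 (tested at about 80 µM)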; 120,000 tested, 0.05% active; AID 485395, 2010;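 active = both duplicates at 50% or more, or one of them with a favoured structure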;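 also: 0% = mean of negative control wells and 100% = mean of positive control wells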
# MgrA DNA FP: S. aureus MgrA activity modulators, primary screen, biochemical, S. aureus Newman, fluorescence polarization; MgrA-DNA binding; inhibition, %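 (about 10 µg/mL by stock and volumes)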; 84,000 tested, 0.13% active; AID 602314, 2012;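 active = above 50% in either of two replicates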;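 also: 0% = protein plus DNA without compound and 100% = DNA alone without protein; higher means less MgrA bound to DNA so lower polarization; one replicate is shown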
# * hit, by the source's call; . = no result given.
SMILES	Sa helicase inh	MgrA DNA FP
CCOC(=O)c1ccc(Nc2scc(C)[n+]2C)cc1	.	-0.3
CCn1cc(C(=O)O)c(=O)c2cnc(N3CCN(C(=S)Nc4ccccc4)CC3)nc21	-9.0	.
CCN(CC)S(=O)(=O)c1ccc(N=Cc2c(O)n(-c3ccccc3)c(=O)[nH]c2=O)c(C)c1	14.0	-0.8
Cc1ccc2[nH]cc(NC(=O)NCCN(C)C)c(=O)c2c1	6.0	-2.1
O=c1oc2cccnc2n1CCS(=O)(=O)c1ccc(F)cc1	.	-0.2
N#CCc1ccc2cc(CC#N)ccc2c1	.	-2.5
Cc1cccc(N(C(=O)Nc2ccc(Cl)cc2)C2=NCC(C)S2)n1 (configuration not stated)	-2.0	-0.1
CC1=CCC2(CC1)COC(C(C)C)OC2 (configuration not stated)	5.0	-0.7
Oc1c(Br)cc(Br)cc1C=NC1CC1	4.0	.
O/N=C1\CCOc2ccc3ccccc3c21	8.0	.
c1cn(-c2ccc(-c3ccno3)cc2)cn1	.	0.5
N#Cc1c(N)nc(SCC(=O)c2ccc(Br)cc2)c(C#N)c1-c1ccc(O)cc1	.	-2.6
COc1ccc(/C=N/NC(=S)NC(C)C)cc1	15.0	.
O=C(COC(=O)Cn1ccc(=O)[nH]c1=O)Nc1ccc(F)cc1	-10.0	.
O=C(O)C1CC=CCC1Cc1ccccc1 (configuration not stated)	-2.0	-1.8
Cc1ccc(-c2csc(C)n2)cc1	.	-0.9
O=C1OC(N2CCOCC2)c2ccccc21 (configuration not stated)	-9.0	.
COC(CNC(=O)CN1CCN(Cc2ccccc2)C1=O)OC	3.0	-0.9
O=C(NS(=O)(=O)c1ccccc1)c1ccccc1	-16.0	.
C#CC(C)(C)N1CNC(=S)NC1	.	2.4
Cc1ccc(C)c(OCc2nnc(SCN3C(=O)c4ccccc4C3=O)o2)c1	19.0	.
Cc1cccc(Nc2nnc(SCC(=O)Nc3sccc3C#N)s2)c1C	-13.0	.
CC(=O)Nc1cc(NC(C)=O)c2nc(N)sc2c1	5.0	2.2
CC(=O)N(c1ccccc1)c1nc(COC(=O)c2cnc(C)cn2)cs1	-16.0	.
O=C(CNCC1CCCCC1)Nc1ccccc1N1CCCCC1	1.0	-2.5
CS(=O)(=O)/C(C#N)=C/c1ccsc1/C=C(\C#N)S(C)(=O)=O	.	9.9
O=c1c2c3nc4ccccc4nc3n(Cc3ccco3)c2ncn1Cc1ccco1	12.0	32.7
CN1C(=O)c2ccccc2C(C(=O)NCCN(Cc2ccco2)C2CCCC2)C1c1cccs1 (configuration not stated)	-12.0	.
COc1ccc(CCNC(=O)CSc2nnc3sc4ccccc4n23)cc1	17.0	.
CSc1nc(NC(=O)C(F)(F)F)cc(=O)[nH]1	1.0	.
COc1ccc(-c2cc3ccccc3n2CC(O)CNCc2ccccc2)cc1 (configuration not stated)	-18.0	.
COc1ccccc1NC(=O)C12CC3CC(CC(C3)C1)C2	4.0	0.7

# Looked up above:
# CSc1nc(NC(=O)C(F)(F)F)cc(=O)[nH]1 in Sa helicase inh → 1.0
# O=c1c2c3nc4ccccc4nc3n(Cc3ccco3)c2ncn1Cc1ccco1 in Sa helicase inh → 12.0

# Further records:
SMILES	Sa helicase inh	MgrA DNA FP
COC(=O)CCc1n[nH]c(=O)[nH]c1=O	-8.0	.
O=C(OCC(=O)N1N=C2/C(=C/c3ccco3)CCCC2C1c1ccco1)c1ccccn1 (configuration not stated)	1.0	.
CCCC12CN3CC(C)(CN(C1)C3c1c(C)n(C)c3ccccc13)C2=O (configuration not stated)	13.0	.
Cc1nn(-c2ccc(Cl)cc2)c(N)c1C1(O)C(=O)Nc2ccc(F)cc21 (configuration not stated)	-1.0	.
O=c1ncn(-c2ccccc2)[nH]1	.	-1.1
NNC(=O)C1CCCNC1=O (configuration not stated)	.	0.0
CC(C(=O)Nc1ccccc1C(=O)N1CCCC1)n1nnc2ccccc21 (configuration not stated)	-5.0	0.6
CCOC(=O)c1[nH]c(=O)[nH]c1CSC(=N)N	6.0	-13.9
CC(NC(=O)COc1ccccc1C(C)(C)C)c1ccccc1 (configuration not stated)	14.0	-0.7
O=C(O)c1ccc(OCCN2CCCC2=O)cc1	-5.0	-2.0
O=C1C(Br)=CC(=CN(O)c2ccccc2)C=C1Br	-19.0	.
C=CCSc1nc(O)c(CC(C)C)c(=O)[nH]1	5.0	-1.9
C/C(=N\NC(=O)COc1ccccc1)C1C(=O)c2ccccc2C1=O	-3.0	4.1
COC(=O)C1C(=O)/C(=C/N(C)C)C(=O)CC1(C)C (configuration not stated)	1.0	4.8
Cc1cc(C)c(-c2ccn[nH]2)[nH]1	.	3.0
NS(=O)(=O)c1ccc(CNC(=O)/C=C/c2ccccc2)cc1	8.0	-0.2
Cn1c(SCC(N)=O)nnc1-c1c[nH]c2ccccc12	20.0	.
CCOc1ccc(-c2nc3s/c(=C\C4=Cc5ccccc5OC4)c(=O)n3n2)cc1	-16.0	3.2
O=C(c1csc2c1CCCC2)N1CCN(S(=O)(=O)c2cccs2)CC1	-9.0	.
Cc1ccc2[nH]c3c(c2c1)CCCC3C(=O)O (configuration not stated)	-1.0	2.2
O=C(O)CC12CC3CC(C1)CC(CC(=O)O)(C3)C2	2.0	0.3
CC(C)NC(=O)C1c2ccccc2C(=O)N(C)C1c1cn(C)c2ccccc12 (configuration not stated)	5.0	.
O=C(O)c1ccc(-n2c(-c3ccccc3)cc3c2CCCC3=O)cc1	8.0	.
COc1ccc(NC(=O)COC(=O)C23CCC(=O)N2c2ccccc2S3)cc1 (configuration not stated)	3.0	.
Cc1cccc(Nc2nnc(-c3ccc(C)c(S(=O)(=O)NCCO)c3)c3ccccc23)c1	15.0	0.3
Cc1ccc(S(=O)(=O)N2CCN(C(=O)c3n[nH]c(=O)c4ccccc34)CC2)cc1	-10.0	.
O=C(Nc1ccc(F)cc1)C(=S)NC1CCCCC1	.	2.8
N#CCNS(=O)(=O)c1ccccc1	5.0	-0.2
COCCCN1CC23C=CC(O2)C(C(=O)OC)C3C1=O (configuration not stated)	15.0	.
O=C(CNc1cccc(F)c1)N1CCc2ccccc2C1	0.0	-0.3
O=C(Oc1ccc(OCc2ccccc2)cc1)c1ccc(-n2cnnn2)cc1	9.0	0.0
CN(C)CCSc1nc(O)c(-c2ccccc2)c(=O)n1-c1ccccc1	13.0	.
CN(Cc1nc(-c2ccccc2)no1)S(=O)(=O)c1ccccc1	12.0	0.8
CCC(=O)N1c2ccccc2NC2=C(C(=O)CC(c3ccccc3)C2)C1c1cccc([N+](=O)[O-])c1 (configuration not stated)	.	-0.9
CC1CCCCN1C(=O)CSc1nnc2ccccn12 (configuration not stated)	-4.0	-1.6
CCOc1ccc(NC(=O)COn2nnc3ccc(S(=O)(=O)N4CCOCC4)cc32)cc1	2.0	.
Cc1cc2c(=O)oc(-c3ccc(Br)cc3)nc2s1	.	3.0
CCCn1cnc2cc(NCc3cccc(OC)c3)ccc21	0.0	-1.1
O=C1CCCN1CCCNCc1ccc(-n2cnc3ccccc32)cc1	4.0	.
COc1ccc(OC)c(-c2c[n+](=O)c3c(n2[O-])CCCC3)c1	-14.0	.

# 3 compounds already listed, ordered by their value in Sa helicase inh, highest first:
SMILES	Sa helicase inh	MgrA DNA FP
CCOc1ccc(NC(=O)COn2nnc3ccc(S(=O)(=O)N4CCOCC4)cc32)cc1	2.0	.
CCCn1cnc2cc(NCc3cccc(OC)c3)ccc21	0.0	-1.1
CC1CCCCN1C(=O)CSc1nnc2ccccn12 (configuration not stated)	-4.0	-1.6

# (next part)
SMILES	Sa helicase inh	MgrA DNA FP
CC(CC(=O)N1CCCCCC1)c1ccccc1 (configuration not stated)	3.0	2.0
CCOC(=O)c1ccccc1NC(=O)/C=C1/Nc2ccccc2NC1=O	2.0	.
COc1ccc(C(=O)NCc2cc3cc(Cl)ccc3[nH]2)cc1COc1ccccc1Cl	10.0	1.1
CC1CC(Nc2ncnc3c2cnn3C)CC(C)(C)C1 (configuration not stated)	10.0	.
O=C(Cn1ncc2c3ccccc3n(Cc3ccccc3)c2c1=O)NCCc1ccccc1	-7.0	.
COc1cc(C2NC(=O)NC(C)=C2C(=O)OCCSC)cc(Br)c1O (configuration not stated)	.	-1.3
Cc1cc(=O)[nH]c(Nc2nc3ccccc3s2)n1	15.0	.
COC(=O)c1ccc(NC(=O)CC23CC4CC(CC(C4)C2)C3)cc1	-5.0	0.5
CCOC(=O)C1CCN(C(=S)Nc2cccc(OC)c2)CC1	.	-0.5
Cc1c2c(n3c(nc4ccccc43)c1C#N)N(CCN1CCOCC1)CC2	4.0	-1.9
O=C(NC1CCCC1)c1oc(=O)c2ccccc2c1-c1ccccc1	8.0	.
COc1ccc(-c2nsc(SCC(N)=O)n2)cc1	2.0	-0.3
CC(C)(CNC(=O)c1oc(=O)c2ccccc2c1-c1ccccc1)N1CCCCC1	-10.0	.
Cc1csc(=O)n1CN1CCN(C(=O)C2COc3ccccc3O2)CC1 (configuration not stated)	-6.0	.
COC(=O)c1cc(OC(=O)c2ccccc2Br)n(C)n1	9.0	-0.6
COc1ccc2[nH]cc(NC(=O)NCCO)c(=O)c2c1	12.0	-0.8
CCOc1ccc(/C=N/OC(C)C(=O)NCc2ccc3c(c2)OCO3)cc1 (configuration not stated)	-19.0	.
O=C(Nc1ncccc1O)c1ccc(Oc2ccccc2)cc1	-13.0	2.8
O=C(Nc1cccc(C(F)(F)F)c1)c1ccc(-c2ccccc2)cc1	8.0	3.8
COc1ccc(CCNC(=S)NCCc2ccccc2)cc1OC	.	0.6
CN(C(=O)CCC(=O)O)C1CCCCC1	8.0	-4.6
O=C1CC(Nc2ccc(N3CCOCC3)cc2)C(=O)N1c1ccccc1 (configuration not stated)	8.0	-5.2
Cc1oc(C(C)(C)C)cc1C(=O)O	.	-3.5
CCN(CC)S(=O)(=O)c1ccc(-n2cnnn2)c(C)c1	-4.0	2.6

# One compound at a time, as listed above. Order of values: Sa helicase inh | MgrA DNA FP
# CCN(CC)S(=O)(=O)c1ccc(-n2cnnn2)c(C)c1 in the list: -4.0 | 2.6
# O=C1CC(Nc2ccc(N3CCOCC3)cc2)C(=O)N1c1ccccc1 (configuration not stated) in the list: 8.0 | -5.2

# Continuation:
SMILES	Sa helicase inh	MgrA DNA FP
CC1Cc2ccccc2N1C(=O)CSc1ncccc1C(=O)O (configuration not stated)	9.0	-1.8
CC(C)(C)NC(=S)N1CCSCC1	.	0.6
N#Cc1ccc(-c2ccc(F)cc2)n(CC(=O)N2CCCC2)c1=O	-2.0	-1.4
O=C(NCc1ccccc1)N1CCOc2ccccc21	6.0	-0.5
COc1ccc2c(c1)-c1ccccc1S(=O)(=O)N2	15.0	0.9
Cc1ccc(NCc2n[nH]c(=S)n2-c2ccccc2)cc1	-9.0	.
CCn1c(=NC(=O)COc2ccc(OC)cc2)sc2cccc(F)c21	-6.0	.
CCCCNC(=S)Nc1ccc(F)cc1	.	0.3
COC(=O)c1ccc2c(c1)N(Cc1nc(-c3cccc(Cl)c3)oc1C)C(=O)C1CCCN21 (configuration not stated)	9.0	0.2
CC(C)(CC(=O)O)CC(=O)Nc1ccc2c(c1)OCCCO2	.	-1.5
O=C(O)c1ccccc1C(=O)N(Cc1ccccc1)Cc1ccccc1	1.0	-2.5
O=C(O)c1nc(Cl)c(Cl)c(N2CCCCC2)c1Cl	-4.0	.
O=c1[nH]nc(CSc2ccccn2)c2ccccc12	.	1.8
NC(=O)CSc1nc(NC2CC2)c2ccccc2n1	-2.0	.
O=C(/C=C/c1ccccc1)N1CCCc2ccccc21	.	-7.5
FC(F)(F)c1cc(-c2ccc(-c3ccn[nH]3)o2)cc(C(F)(F)F)c1	22.0	.
Cc1ccc(C(=O)NCCN2C(=O)S/C(=C\c3ccc(F)cc3)C2=O)cc1NC(=O)c1ccco1	22.0	.
Cc1ccccc1-c1nnc(NC(=O)C(C)SC2=NCCS2)s1 (configuration not stated)	5.0	.
Cc1cccc(-n2c(C)nc3cc(C(=O)NCc4ccc(F)cc4)ccc32)c1	11.0	0.6
CCN(CC)c1ccc(C(=O)NN)cc1	-3.0	.
NNC(=O)CS(=O)Cc1cccc(C(F)(F)F)c1 (configuration not stated)	.	4.6
Cc1cc(C)n2nc(C(=O)OCC(=O)N3CCN(S(=O)(=O)c4ccccc4)CC3)nc2n1	-9.0	.
CCOC(=O)C1CCN(C2=NC(C)C(=O)N2c2ccc(C)cc2)CC1 (configuration not stated)	16.0	.
CCN(CC)CCNc1ccnc2cc(Cl)ccc12	25.0	3.0
O=C(NCC(c1ccco1)N1CCOCC1)c1ccccc1 (configuration not stated)	-1.0	.
O=C(Nc1nc(-c2cc3ccccc3oc2=O)cs1)C1CCCCC1	-23.0	.
COc1ccccc1-n1cnnc1SCc1ccc(C)cc1	-4.0	.
CC1=CC(C)C2COC(c3cccnc3)C1C2C (configuration not stated)	-9.0	3.0
Cc1cccc(C)c1NC(=O)COc1ncnc2ccccc12	3.0	-3.3
Cc1ccc(C(=O)NCCn2c(C)cc3ccccc32)cc1	16.0	.
COc1cc([N+](=O)[O-])ccc1N1C(=O)C2C3C=CC(O3)C2C1=O (configuration not stated)	.	7.4
CC(C)(C)c1nocc1C(=O)Nc1ccc(Cl)cc1	.	-3.2
CCOC(=O)N1CCN(CC(O)Cn2c(=O)c3c(ncn3C)n(C)c2=O)CC1 (configuration not stated)	.	3.0
CC(=O)Oc1ccccc1C(=O)O	.	-0.1
Nc1cc(N)nc(SCc2noc(-c3ccc(Cl)cc3)n2)n1	9.0	-1.0

# These rows are one share of the data; the hit share may differ from the screen's.
